Kir21 block = blocks the mouse Kir2.1 inward-rectifier potassium channel. P35561. HEK293-Kir2.1, FluxOR thallium flux fluorescence; active compounds read low. B-score at 10 µM. 310,000 compounds, 0.85% hits. AID 1672;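 active = fluorescence ratio B-score at or below minus 3 SD of library scores, with starting-brightness B-score within 2 SD, cut at about -4.2 in these data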;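 also: channel flux triggered by added potassium and thallium sulfate stimulus; B-score of peak minus minimum fluorescence over baseline after thallium stimulus; more negative B-score means stronger Kir2.1 block with less thallium influx; some compounds called inactive have numbers as strong as hits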
Target sequence (P35561 whole entry, looked up): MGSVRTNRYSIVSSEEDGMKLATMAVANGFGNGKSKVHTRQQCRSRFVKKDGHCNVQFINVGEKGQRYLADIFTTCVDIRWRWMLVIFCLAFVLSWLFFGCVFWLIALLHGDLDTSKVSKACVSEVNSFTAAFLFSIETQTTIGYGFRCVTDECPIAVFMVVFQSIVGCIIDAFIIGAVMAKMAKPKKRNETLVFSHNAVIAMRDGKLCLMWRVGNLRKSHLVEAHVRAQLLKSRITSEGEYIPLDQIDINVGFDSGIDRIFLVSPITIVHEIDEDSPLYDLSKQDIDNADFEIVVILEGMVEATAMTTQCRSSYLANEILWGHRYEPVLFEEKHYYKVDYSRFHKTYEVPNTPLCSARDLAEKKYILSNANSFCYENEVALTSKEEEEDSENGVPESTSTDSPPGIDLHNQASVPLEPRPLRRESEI
Numbers without * were called inactive. This is a subset; most or all hits stand in other tables.

Kir21 block | SMILES
0 | CCn1nc(NC(=O)C(C)C)c2cc3cccc(C)c3nc21
-2.9 | Cc1nn(-c2ccccc2)nc1CNC(=O)C(C)Cc1ccccc1 (stereo not given)
0.7 | NC(=O)NNC1=Nc2cccc3cccc1c23
-1.2 | COc1ccc(CNC(=O)Cn2ncn3cccc3c2=O)cc1
-0.76 | CC(C)CCOC(=O)C(C)Sc1n[nH]c(=O)[nH]c1=O (stereo not given)
-0.95 | COc1ccc(C(CNC(=O)C(CCSC)NC(=O)c2ccccc2Cl)N2CCOCC2)cc1 (stereo not given)
-0.42 | CC(C)=CCC/C(C)=C/CC/C(C)=C/CC/C(C)=C/CC1=C(C)C(=O)c2ccccc2C1=O
-1.8 | COc1ccc([N+](=O)[O-])cc1NC(=O)CSCc1ccccc1
0.09 | CCOc1cc(C2NC(=S)NC(C)=C2C(=O)Nc2ccccc2)ccc1O (stereo not given)
-0.95 | CCn1c2ccccc2c2nnc(SCC(=O)NCCOC)nc21
1.9 | CCOC(=O)/C=C1\NC2(CCCCC2)Cc2cc(OC)c(OC)cc21
-1.8 | CCCCN(CCCC)CC(O)COc1ccc(Br)cc1 (stereo not given)
-1 | Cc1cccc(C)c1NC(=O)c1cc(S(=O)(=O)N2CCOCC2)ccc1F
0.66 | CC(C)(C)OC(=O)NCCNC(=O)c1cccs1
0.62 | O=C(NNc1ccccc1[N+](=O)[O-])Nc1cccc(Cl)c1
-2 | Cc1cc(NC(=O)c2cc(-c3ccc(C)s3)nc3ccccc23)no1
0.75 | COc1cc(C(=O)NCCC(=O)NCCCN2CCCCC2C)cc(OC)c1OC (stereo not given)
-2 | CCc1c(C)nc2c(-c3ccccc3)c(C)nn2c1Nc1ccc(NC(C)=O)cc1
-0.48 | C/C(=N\NC(=O)c1ccncc1)c1cc2ccccc2o1
-0.27 | Fc1ccc(-c2ccc(Nc3cccc(F)c3)nn2)cc1
-0.86 | COc1ccc(Br)cc1S(=O)(=O)n1ccnc1C
-0.62 | O=C1Nc2ccccc2/C1=N/c1sc2c(c1C(=O)NCCc1ccccc1)CCCC2
-1.5 | O=C(CCCn1nnc2ccccc2c1=O)N[C@H](C(=O)O)c1ccccc1
-0.17 | Cc1ccc(-n2nnnc2SCC(=O)Nc2ccc3c(c2)COC3=O)cc1C
1.6 | CCCNC(=O)N[C@@H](CCSC)C(=O)OC
0.12 | Cc1ccc(/C=N/NC(=O)c2nnn(-c3nonc3N)c2CNc2ccccc2)cc1
-0.75 | Cc1ccc(NC(=O)c2oc3ccccc3c2NC(=O)C2CC2)cc1
1.4 | COCCn1c(COc2ccc(Cl)cc2)nnc1SCC(N)=O
-0.51 | COC(=O)C1=C[C@@H](C(=O)OC)[C@@H]2C3=C(C(=O)[C@]2(C)NC(=O)c2ccccc2)[C@H](C)n2c(=O)n(C)c(=O)n2[C@@H]3C1
-0.2 | COc1ccc(CC(=O)NC2CC2)cc1OC
-0.45 | COc1ccccc1NC(=O)Oc1ccc(NC(=O)c2ccco2)cc1
-1.2 | CCOC(=O)C1=NOC(CNC(=O)c2c(-c3ccccc3Cl)noc2C)C1 (stereo not given)
-0.28 | COc1ccc(CNS(=O)(=O)c2ccc(C)cc2)cc1
0 | COc1ccc(-c2csc(NC(=O)CSc3ccc(Br)cc3)n2)c(OC)c1
-0.16 | COC(=O)c1ccccc1NC1CC(=O)N(c2c(C)cccc2C)C1=O (stereo not given)
2 | Cc1ccc(-c2ccc(SCC(=O)NC3CCCCC3)nn2)cc1
0.57 | CC(O)CSc1nc2c(c(=O)[nH]c(=O)n2C)n1CC(O)COc1ccccc1 (stereo not given)
-0.91 | COC(CNC(=O)C1CCCCC1C(=O)O)OC (stereo not given)
1.1 | CCCCCn1c(=S)[nH]c2cc(C(=O)N3CCN(C(=O)OCC)CC3)ccc2c1=O
0.95 | COc1ccc(CNC(=O)CCCn2nc([N+](=O)[O-])cc2C)cc1
0.7 | COCCCn1c(SCC(=O)NCc2ccccc2)nc2ccccc2c1=O
1.1 | Cc1cc(C)nc(SCc2cn3ccccc3n2)n1
1.9 | Cc1cc(C)nc(/N=C(/NC(=O)Nc2ccc(Cl)c(Cl)c2)Nc2cccc(Cl)c2)n1
-3.4 | COCC(=O)Nc1c(C(=O)Nc2ccc3c(c2)OCCO3)oc2ccccc12
-0.82 | CCN(c1ccccc1)S(=O)(=O)c1ccc(C(=O)Nc2ccncc2)cc1
0.77 | Cc1ccccc1NC(=O)c1cccc(NC(=O)c2ccco2)c1
-0.39 | Cc1cc(=O)oc2cc(Oc3ccc([N+](=O)[O-])cc3[N+](=O)[O-])ccc12
1.1 | CCC(=Cc1ccc(CC)cn1)CC
-0.88 | CCn1c(SCc2cccc(C(=O)O)c2)nnc1-c1ccc(Cl)cc1
-0.07 | CC(=O)Nc1ccc(S(=O)(=O)N2CCN(C(=O)C3COc4ccccc4O3)CC2)cc1 (stereo not given)

Continuation:
Kir21 block | SMILES
-0.01 | CC(C)NC(=O)CNc1ccc(C(F)(F)F)cc1[N+](=O)[O-]
-1.3 | COc1cccc(CNn2cnnc2)c1OCc1ccccc1F
-0.34 | O=C(NCN1CCc2ccccc2C1)c1ccccc1
-0.28 | O=C(NCC(=O)N(c1cccnc1)C(C(=O)NC1CCCCC1)c1ccccc1)c1ccco1 (stereo not given)
0.29 | COc1ccccc1-c1nc2c(c(SCC(=O)N3CCCCC3)n1)Cc1c(CO)cnc(C)c1O2
-0.42 | O=C(CSc1nnc(-c2ccc(Cl)cc2)n1Cc1ccco1)NCc1ccc2c(c1)OCO2
-0.01 | Cn1c(=O)c2c(nc(Cc3ccccc3)n2C)n(C)c1=O
1.4 | COc1cc(NS(=O)(=O)c2csc(C(N)=O)c2)cc(OC)c1
-1.1 | CC1=NNC(=O)C1CCC(=O)N/N=C/C=C/c1ccccc1 (stereo not given)
-0.1 | CCOc1ccc(C(Nc2ccc(C)cc2)P2(=O)OCCCO2)cc1 (stereo not given)
0.13 | COc1ccc(CNC(=O)CN(c2cc(C)cc(C)c2)S(=O)(=O)c2c(C)[nH]c(=O)[nH]c2=O)cc1
0.47 | CCc1cccc(NC(=O)CCNC(=O)Cn2ccc3ccccc3c2=O)c1
0.28 | CCN1CCN(c2ccc(S(=O)(=O)N3CCCCC3)cc2NC(=O)Cc2ccccc2F)CC1
-1.6 | COc1cccc(CNC(=O)c2nnn(-c3ccc(OC(F)(F)F)cc3)c2N)c1
0.08 | COCC(=O)Nc1ccc(C(C)C)cc1
-2.3 | CC(C)Sc1nnc([C@H](C)NC(=O)OC(C)(C)C)o1
0.6 | O=C(c1[nH]ncc1-c1ccccc1)C1CO1 (stereo not given)
0.07 | CCn1c(SCC(=O)N2CCC(C(N)=O)(N3CCCCC3)CC2)nnc1-c1ccccc1
1.6 | COc1ccc(C2/C(=C(/O)c3ccc(F)cc3)C(=O)C(=O)N2CCCN2CCOCC2)cc1OC (stereo not given)
-0.79 | Cc1ccc(N2CC(C(=O)NC3CC3)CC2=O)cc1 (stereo not given)
1.4 | CCN(CC)S(=O)(=O)c1ccc2c3c(cccc13)C(=O)N2
-0.03 | CCCn1nc(NC(=O)C2CCCO2)c2cc3cc(C)ccc3nc21 (stereo not given)
-0.68 | CCOC(=O)C1(Cc2ccccc2C)CCCN(C(=O)CN2C(=O)CSC2=O)C1 (stereo not given)
0.02 | CC1(C)Cc2c(c(N3CCOCC3)nc3sc4c(NCC5CCCO5)nnnc4c23)CS1 (stereo not given)
-0.33 | COc1ccc2cc(S(=O)(=O)Nc3ccccn3)ccc2c1
-0.03 | Cc1cccc2cc(C3CC(c4ccco4)=NN3C(=O)CCC(=O)O)c(Cl)nc12 (stereo not given)
-0.2 | CCC1CCCCN1Cc1nc2c(c(=O)n(C)c(=O)n2C)n1CCC(C)C (stereo not given)
1.2 | CC1C[N+](=C2C=C(N3CCOCC3)CC(C)(C)C2)CC(C)O1 (stereo not given)
-0.71 | Cc1cc(/C=C2\SC(=Nc3ccc(F)cc3)NC2=O)c(C)n1-c1ccc(S(N)(=O)=O)cc1
0 | c1ccc(-c2csc3ncnc(NCCCN4CCOCC4)c23)cc1
0.62 | CCOc1cc(NC(=O)c2cccs2)c(OCC)cc1NC(=O)CCC(=O)NCCN1CCOCC1
0.53 | Cc1nn(CC(=O)NCCc2ccccc2)c(=O)c2cccn12
-0.44 | COc1ccc2[nH]c(C(=O)NCCCN3CCCC3=O)c(C)c2c1
0.3 | NC(=O)c1ccccc1NS(=O)(=O)Cc1ccccc1
-2.8 | CCN1CCN(S(=O)(=O)c2ccc3c(c2)OCCO3)CC1
-0.97 | C(=C\c1ccc2ccccc2n1)/c1ccccc1
0.93 | CCCC(=O)c1cc(F)c(N2CCN(C(=O)OCC)CC2)cc1C
-0.45 | Cc1cccc(-c2nc(CS(=O)CC(=O)NCC3CCCO3)c(C)o2)c1 (stereo not given)
-0.1 | O=C1CCCN1Cc1ncnn1-c1ccccc1
1.9 | Cc1ncc(CO)c2cc(C(=O)Nc3cccc(F)c3)c(=Nc3cccc(C(N)=O)c3)oc12
0 | N=c1n(CCCOc2ccccc2Cl)c2ccccc2n1CC(N)=O
-1.5 | CCN=C1SC(CC(=O)NC(N)=O)C(=O)N1CC (stereo not given)
-0.17 | COc1ccc(CNC(=S)Nc2cc(OC)ccc2OC)cc1
0.03 | C=CCOc1ccccc1CNn1nnnc1N
-1.5 | CCOc1ccc(N2CC(C(=O)Nc3ccc(F)cc3F)CC2=O)cc1 (stereo not given)
-1.2 | O=C(OCC1CC(c2ccccc2Cl)=NO1)c1ccc(Br)cc1 (stereo not given)
-0.09 | O=C(c1ccco1)N1CCN(C2c3ccccc3-c3ccccc32)CC1
0.69 | CCOC(=O)C1(CC2CCCCO2)CCN(C2CCSCC2)CC1 (stereo not given)
1.2 | COc1cc(CO)c(Br)cc1OCC(=O)Nc1ccccc1C
-0.87 | Cc1ccc(S(=O)(=O)NNC(=O)c2ccc(F)cc2)cc1

(cont.)
Kir21 block | SMILES
0.88 | COc1cc(-c2nnc(-c3ccncc3)o2)ccc1OCc1ccccc1
0.1 | CCC(C(=O)Nc1c[nH]c(=O)[nH]c1=O)c1ccccc1 (stereo not given)
0.84 | CC1(C)Cc2c(cnn2-c2cccc(F)c2)C(NC(=O)CCN2CCCC2=O)C1 (stereo not given)
-0.47 | Cc1cccc(NC(=O)c2ccc(S(=O)(=O)N3CCCCCC3)cc2)n1
0.72 | Oc1ccc(-n2cccc2/C=N/n2cnnc2)cc1
0.16 | NC(=O)c1cc2ccccc2o/c1=N\NC(=O)c1ccccc1O
0.96 | Cc1csc(SCC(=O)N(C)CC(=O)Nc2ccccc2Cl)n1
0.52 | CCOC(=O)c1c(N)nn(C(=O)CC)c1-c1ccccc1
-0.64 | CC1=CC(C)C2C(=O)N(c3ccccc3)C(=O)C2C1 (stereo not given)
1.9 | O=C(Nc1cccnc1)c1cc2nc(C3CC3)cc(C(F)(F)F)n2n1
2.3 | Cc1cc(C(=O)CCl)c(C)n1CCc1ccc(Cl)cc1
-0.01 | COc1ccc(S(=O)(=O)N2Cc3ccccc3CC2C(=O)N2CCOCC2)cc1 (stereo not given)
-0.01 | O=[N+]([O-])c1cc(/C=N/N2CCOCC2)cs1
1.2 | COc1ccc(C2c3ccsc3CCN2C(=O)NC(C)(C)C)cc1 (stereo not given)
0.87 | O=C(N/N=C/C=C/c1ccccc1[N+](=O)[O-])c1cccs1
1.5 | COc1nnc(OC)c2ccccc12
-1.3 | CCc1ccc(S(=O)(=O)N2CCCC(N3CCN(c4ccc(OC)cc4)CC3)C2)cc1 (stereo not given)
-1.6 | O=C(CCc1ccc(S(=O)(=O)N2CCOCC2)cc1)NCCCN1CCCC1=O
-0.01 | CCCSC1=C(C#N)C(c2cccs2)CC(=O)N1 (stereo not given)
-0.62 | N#Cc1nc(N2CCOCC2)nc(N2CCOCC2)n1
0.83 | O=C(CSC1=NCCS1)NCc1ccco1
-1.1 | CC(=O)Nc1ccc(S(=O)(=O)N2CCN(S(=O)(=O)N3CCCCC3)CC2)cc1
0.65 | COc1ccc(CN2C(=NC(=O)c3ccccc3)SC3CS(=O)(=O)CC32)cc1OC (stereo not given)
-0.92 | CCN(C(=O)CCc1ccccc1)C1CCCCC1
0 | Cc1ccc(-c2noc(CSc3nnc(-c4cccs4)n3C)n2)cc1
0.47 | C#CCOCCOCCOCCNc1nc(N2CCOCC2)nc(N2CCN(C(=O)[C@H](CCC(=O)O)n3cc(C(N)[C@H](C)CC)nn3)CC2)n1 (stereo not given in full)
0.18 | O=C(CC1CC2CCC1C2)Nc1nc(-c2ccccn2)cs1 (stereo not given)
0.47 | Cc1cc(C)c(S(=O)(=O)NC(C)C)c(C)c1-n1cnnn1
